# Ran FRET = RanGTP/importin-beta interaction disruptors – biochemical, CFP-Ran/YFP-importin-beta FRET, RCC1, cell-free, primary screen (AID 434961). 0.2% of 7,700 active. CFP-Ran/YFP-importin-beta FRET, cell-free; hits give high values. inhibition, %;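 active = more than half of the replicate wells above 15% inhibition; inconclusive = exactly half above it; inactive = fewer than half above it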;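 note: 0% = DMSO wells and 100% inhibition = RanGDP control wells on each plate; stock of unstated strength diluted about 400-fold; mean of two wells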
# * = called active by the depositor; ? = inconclusive. This is a subset. The share of hits here may be higher or lower than overall.
C[C@@H]1CCCCO[C@@H](CN(C)S(=O)(=O)c2ccc(F)cc2)[C@H](C)CN([C@@H](C)CO)C(=O)c2cc(NC(=O)c3ccncc3)ccc2O1
- Ran FRET: ?
C[C@@H]1CN([C@@H](C)CO)C(=O)Cc2cc(NC(=O)CCC(F)(F)F)ccc2O[C@H]1CN(C)Cc1ccc2c(c1)OCO2
- Ran FRET: 5.3
COc1ccc(CN(C)C[C@H]2Oc3ccc(NS(=O)(=O)c4ccc(Cl)cc4)cc3CC(=O)N([C@@H](C)CO)C[C@H]2C)cc1
- Ran FRET: -3.4
C[C@H](CO)N1C[C@H](C)[C@H](CN(C)C(=O)Nc2ccc3c(c2)OCO3)Oc2ccc(NC(=O)c3ccncc3)cc2C1=O
- Ran FRET: -0.5
CC(C)NC(=O)Nc1ccc2c(c1)C(=O)N([C@@H](C)CO)C[C@@H](C)[C@H](CN(C)S(=O)(=O)c1cccs1)OCCCC[C@H](C)O2
- Ran FRET: 3.8
COc1ccccc1NC(=O)N(C)C[C@H]1OCc2cnnn2CCCC(=O)N([C@@H](C)CO)C[C@@H]1C
- Ran FRET: 1.0
C[C@H]1CN([C@@H](C)CO)C(=O)Cc2cc(NC(=O)C3CC3)ccc2O[C@H]1CN(C)Cc1ccc(Cl)c(Cl)c1
- Ran FRET: 7.6
C[C@H](CO)N1C[C@H](C)[C@@H](CN(C)C(=O)Nc2cccc3ccccc23)Oc2c(NC(=O)C3CCOCC3)cccc2C1=O
- Ran FRET: -0.5
C[C@@H]1CN([C@@H](C)CO)C(=O)c2cc(NC(=O)Cn3cnnn3)ccc2O[C@@H]1CN(C)S(=O)(=O)c1cccs1
- Ran FRET: -0.3
COc1ccc(NC(=O)Nc2ccc3c(c2)CC(=O)N([C@@H](C)CO)C[C@@H](C)[C@@H](CN(C)S(C)(=O)=O)O3)cc1
- Ran FRET: 6.4
C[C@H]1CN([C@@H](C)CO)C(=O)c2cccc(NC(=O)c3nc4ccccc4s3)c2O[C@@H]1CN(C)CC1CC1
- Ran FRET: -1.2
C[C@@H]1CN([C@@H](C)CO)C(=O)CCCn2cc(nn2)CO[C@H]1CN(C)Cc1ccc2c(c1)OCCN2C
- Ran FRET: 0.3
Cc1noc(C)c1S(=O)(=O)N(C)C[C@H]1Oc2ccc(NC(=O)Nc3ccc(F)cc3)cc2CC(=O)N([C@@H](C)CO)C[C@@H]1C
- Ran FRET: 2.8
C[C@@H]1CCCCO[C@H](CN(C)C(=O)Nc2ccc(F)cc2)[C@H](C)CN([C@H](C)CO)C(=O)c2cc(NS(=O)(=O)c3ccccc3)ccc2O1
- Ran FRET: 4.6
C[C@@H]1CN([C@H](C)CO)C(=O)c2cc(NC(=O)Cc3ccccc3)ccc2O[C@@H]1CN(C)C(=O)Nc1ccccc1
- Ran FRET: 0.7
C[C@@H]1CN([C@H](C)CO)C(=O)c2cc(NS(C)(=O)=O)ccc2O[C@@H](C)CCCCO[C@H]1CN(C)C(=O)Nc1ccccc1
- Ran FRET: 3.6
CNC[C@H]1Oc2ccc(N(C)C)cc2C(=O)N([C@H](C)CO)C[C@@H]1C
- Ran FRET: 1.9
Cc1noc(C)c1S(=O)(=O)Nc1cccc2c1O[C@H](CN(C)C(=O)NC1CCCCC1)[C@H](C)CN([C@@H](C)CO)C2=O
- Ran FRET: -6.5
C[C@@H]1CCCCO[C@H](CN(C)C(=O)Cc2ccccc2)[C@@H](C)CN([C@H](C)CO)C(=O)c2cc(NC(=O)c3ccncc3)ccc2O1
- Ran FRET: -0.1
C[C@H](CO)N1C[C@H](C)[C@H](CN(C)C(=O)Nc2ccc3c(c2)OCO3)Oc2ccc(NS(C)(=O)=O)cc2C1=O
- Ran FRET: 0.6
C[C@H]1CN([C@@H](C)CO)C(=O)c2cccc(NS(=O)(=O)c3cccs3)c2O[C@@H]1CN(C)Cc1ccc(C(F)(F)F)cc1
- Ran FRET: 0.4
C[C@@H]1CN([C@H](C)CO)C(=O)c2cccc(NC(=O)C3CCOCC3)c2O[C@H]1CN(C)C(=O)Nc1ccc(F)cc1
- Ran FRET: 3.8
Cc1noc(C)c1S(=O)(=O)N(C)C[C@@H]1OCCCC[C@H](C)Oc2ccc(NC(=O)NC(C)C)cc2C(=O)N([C@H](C)CO)C[C@H]1C
- Ran FRET: -0.5
CC(C)NC(=O)N(C)C[C@@H]1Oc2ccc(NS(=O)(=O)c3cn(C)cn3)cc2CC(=O)N([C@H](C)CO)C[C@H]1C
- Ran FRET: -2.1
C[C@H](CO)N1C[C@H](C)[C@H](CN(C)S(=O)(=O)c2ccc(C#N)cc2)OCc2cnnn2CCCC1=O
- Ran FRET: 6.9

COc1ccc(S(=O)(=O)Nc2ccc3c(c2)CC(=O)N([C@H](C)CO)C[C@H](C)[C@H](CN(C)S(=O)(=O)c2cn(C)cn2)O3)cc1
- Ran FRET: 5.4
C[C@H](CO)N1C[C@H](C)[C@@H](CN(C)C(=O)Nc2ccccc2)Oc2ccc(NS(C)(=O)=O)cc2C1=O
- Ran FRET: -1.4
CC(C)NC(=O)Nc1ccc2c(c1)C(=O)N([C@@H](C)CO)C[C@@H](C)[C@H](CN(C)C(=O)Cc1ccccc1)OCCCC[C@H](C)O2
- Ran FRET: 2.9
C[C@@H]1CN([C@H](C)CO)C(=O)c2cc(NC(=O)CCN3CCOCC3)ccc2O[C@@H]1CN(C)C(=O)Nc1ccccc1
- Ran FRET: -2.0
COc1ccc(CN(C)C[C@@H]2Oc3ccc(NC(=O)CCN4CCOCC4)cc3C(=O)N([C@H](C)CO)C[C@H]2C)cc1
- Ran FRET: -0.5
C[C@@H]1CN([C@H](C)CO)C(=O)c2cc(NC(=O)CCCN(C)C)ccc2O[C@@H]1CN(C)C(=O)Nc1cccc2ccccc12
- Ran FRET: -2.3
C[C@@H]1CN([C@H](C)CO)C(=O)c2cccc(N(C)C)c2O[C@@H]1CN(C)C(=O)Nc1ccc(C(F)(F)F)cc1
- Ran FRET: -1.9
C[C@@H]1CN([C@H](C)CO)C(=O)c2cc(NC(=O)CCCN(C)C)ccc2O[C@@H]1CN(C)C(=O)Nc1ccccc1
- Ran FRET: -0.8
Cc1noc(C)c1NC(=O)N(C)C[C@@H]1OCCCC[C@H](C)Oc2ccc(NC(=O)Cc3ccccc3)cc2C(=O)N([C@H](C)CO)C[C@@H]1C
- Ran FRET: 4.8
C[C@H]1CN([C@@H](C)CO)C(=O)c2cccc(NS(=O)(=O)c3cn(C)cn3)c2O[C@H]1CN(C)Cc1ccc(Cl)c(Cl)c1
- Ran FRET: -2.3
CNC[C@@H]1OCCCC[C@H](C)Oc2ccc(NC(=O)NC(C)C)cc2C(=O)N([C@H](C)CO)C[C@H]1C
- Ran FRET: -0.4
C[C@H]1CN([C@@H](C)CO)C(=O)c2cc(NC(=O)NC3CCCCC3)ccc2O[C@H]1CN(C)C(=O)Nc1cccc2ccccc12
- Ran FRET: -4.3
C[C@H](CO)N1C[C@H](C)[C@H](CN(C)C(=O)c2ccncc2)OCCCC[C@H](C)Oc2ccc(NS(=O)(=O)c3cccs3)cc2C1=O
- Ran FRET: 2.3
C[C@@H]1CN([C@@H](C)CO)C(=O)c2cccc(NC(=O)c3ccncc3)c2O[C@H]1CN(C)S(=O)(=O)c1cccs1
- Ran FRET: 0.1
COc1ccc(NC(=O)Nc2ccc3c(c2)C(=O)N([C@H](C)CO)C[C@H](C)[C@@H](CN(C)Cc2ccc(C(=O)O)cc2)O3)cc1
- Ran FRET: 2.8
C[C@H]1CCCCO[C@H](CN(C)C(=O)Cc2ccccc2)[C@@H](C)CN([C@@H](C)CO)C(=O)c2cc(NC(=O)Nc3ccc(F)cc3)ccc2O1
- Ran FRET: -2.4
C[C@@H]1CCCCO[C@@H](CN(C)S(=O)(=O)c2ccccc2)[C@@H](C)CN([C@@H](C)CO)C(=O)c2cc(NC(=O)c3ccccc3)ccc2O1
- Ran FRET: -5.5
C[C@@H]1CN([C@H](C)CO)C(=O)c2cc(NC(=O)Nc3ccc4c(c3)OCO4)ccc2O[C@@H]1CN(C)Cc1ccc(C(F)(F)F)cc1
- Ran FRET: -1.1
C[C@@H]1CN([C@H](C)CO)C(=O)c2cccc(NC(=O)c3ccncc3)c2O[C@@H]1CN(C)C(=O)Nc1ccccc1
- Ran FRET: -2.5
Cc1noc(C)c1NC(=O)Nc1ccc2c(c1)CC(=O)N([C@@H](C)CO)C[C@H](C)[C@H](CN(C)S(=O)(=O)c1cccs1)O2
- Ran FRET: 4.3
Cc1ccc(S(=O)(=O)Nc2ccc3c(c2)CC(=O)N([C@@H](C)CO)C[C@@H](C)[C@H](CN(C)Cc2ccncc2)O3)cc1
- Ran FRET: -2.4
CC(C)NC(=O)Nc1ccc2c(c1)CC(=O)N([C@H](C)CO)C[C@H](C)[C@H](CN(C)C)O2
- Ran FRET: 2.7
CCCC(O)C#Cc1cnc2c(c1)C(=O)N([C@H](C)CO)C[C@H](C)[C@H](CN(C)C(=O)Nc1ccc(F)cc1)O2 (stereo partly drawn)
- Ran FRET: -2.2
C[C@@H]1CCCCO[C@H](CN(C)C(=O)C2CCCCC2)[C@H](C)CN([C@@H](C)CO)C(=O)c2cc(NS(=O)(=O)c3ccccc3)ccc2O1
- Ran FRET: -1.2
C[C@H](CO)N1C[C@H](C)[C@@H](CN(C)C(=O)Nc2ccc(C(F)(F)F)cc2)OCCCC[C@H](C)Oc2ccc(NS(C)(=O)=O)cc2C1=O
- Ran FRET: 10.0

CNC[C@@H]1OCCCC[C@@H](C)Oc2ccc(NC(=O)NC(C)C)cc2C(=O)N([C@H](C)CO)C[C@H]1C
- Ran FRET: -1.4
C[C@@H]1CN([C@@H](C)CO)C(=O)CCCn2cc(nn2)CO[C@@H]1CN(C)Cc1ccc2cccnc2c1
- Ran FRET: 5.4
C[C@@H]1CN([C@@H](C)CO)C(=O)c2cccc(N(C)C)c2O[C@@H]1CN(C)Cc1ccc(C(=O)O)cc1
- Ran FRET: 0.8
Cc1noc(C)c1NC(=O)Nc1cccc2c1O[C@H](CN(C)C)[C@@H](C)CN([C@H](C)CO)C2=O
- Ran FRET: 3.0
C[C@@H]1CN([C@H](C)CO)C(=O)c2cc(NC(=O)c3ccncc3)ccc2O[C@@H](C)CCCCO[C@@H]1CN(C)Cc1ccncc1
- Ran FRET: -3.7
C[C@@H]1CN([C@@H](C)CO)C(=O)Cc2cc(NS(=O)(=O)c3ccccc3)ccc2O[C@H]1CN(C)C(=O)Nc1cccc2ccccc12
- Ran FRET: -2.4
C[C@@H]1CCCCO[C@H](CN(C)Cc2ccncc2)[C@@H](C)CN([C@@H](C)CO)C(=O)c2cc(NS(C)(=O)=O)ccc2O1
- Ran FRET: 3.4
COc1ccc(CN(C)C[C@@H]2Oc3c(NS(=O)(=O)c4ccc(Cl)cc4)cccc3C(=O)N([C@@H](C)CO)C[C@H]2C)cc1
- Ran FRET: 2.3
Cc1noc(C)c1S(=O)(=O)Nc1ccc2c(c1)CC(=O)N([C@@H](C)CO)C[C@H](C)[C@H](CN(C)C(=O)Nc1ccc(C(F)(F)F)cc1)O2
- Ran FRET: -5.5
CC(C)NC(=O)N(C)C[C@H]1OCCCC[C@H](C)Oc2ccc(NC(=O)CCC(F)(F)F)cc2C(=O)N([C@@H](C)CO)C[C@@H]1C
- Ran FRET: 4.5
C[C@@H]1CN([C@@H](C)CO)C(=O)c2cccc(NS(=O)(=O)c3ccc(Cl)cc3)c2O[C@@H]1CN(C)CC1CC1
- Ran FRET: -4.4
C[C@@H]1CN([C@@H](C)CO)C(=O)c2cccc(NC(=O)c3ccncc3)c2O[C@H]1CN(C)Cc1ccc(Cl)c(Cl)c1
- Ran FRET: ?
C[C@H](CO)N1C[C@H](C)[C@H](CN(C)Cc2ccncc2)OCCCC[C@H](C)Oc2ccc(NC(=O)CCCN(C)C)cc2C1=O
- Ran FRET: 1.3
C[C@@H]1CN([C@H](C)CO)C(=O)CCCn2cc(nn2)CO[C@H]1CN(C)C(=O)Nc1ccnc(N2CCOCC2)c1
- Ran FRET: 7.7
C[C@@H]1CN([C@H](C)CO)C(=O)c2cccc(NS(C)(=O)=O)c2O[C@@H]1CN(C)C
- Ran FRET: 1.4
CC(C)NC(=O)N(C)C[C@H]1OCCCC[C@H](C)Oc2ccc(NS(C)(=O)=O)cc2C(=O)N([C@@H](C)CO)C[C@H]1C
- Ran FRET: -0.1
C[C@H]1CN([C@@H](C)CO)C(=O)Cc2cc(NC(=O)C3CC3)ccc2O[C@H]1CN(C)C(=O)Nc1cccc2ccccc12
- Ran FRET: 2.4
C[C@H](CO)N1C[C@H](C)[C@@H](CN(C)C(=O)C2CCCCC2)OCCCC[C@H](C)Oc2ccc(NC(=O)Nc3ccccc3)cc2C1=O
- Ran FRET: 1.6
C[C@@H]1CN([C@H](C)CO)C(=O)c2cccc(NC(=O)Nc3ccc(C(F)(F)F)cc3)c2O[C@@H]1CN(C)S(=O)(=O)c1ccc(Cl)cc1
- Ran FRET: 0.2
Cc1noc(C)c1NC(=O)N(C)C[C@H]1Oc2ccc(NC(=O)CCN3CCOCC3)cc2CC(=O)N([C@H](C)CO)C[C@@H]1C
- Ran FRET: -2.7
C[C@H]1CN([C@@H](C)CO)C(=O)c2cc(NC(=O)CCC(F)(F)F)ccc2O[C@H]1CN(C)C(=O)Nc1ccccc1
- Ran FRET: 1.4
Cc1noc(C)c1S(=O)(=O)Nc1ccc2c(c1)C(=O)N([C@@H](C)CO)C[C@@H](C)[C@@H](CN(C)C(=O)Cc1ccccc1)OCCCC[C@@H](C)O2
- Ran FRET: -2.2
C[C@@H]1CN([C@@H](C)CO)C(=O)c2cc(N(C)C)ccc2O[C@H]1CN(C)C
- Ran FRET: -0.6
C[C@@H]1CN([C@@H](C)CO)C(=O)Cc2cc(NC(=O)c3ccncc3)ccc2O[C@@H]1CN(C)S(=O)(=O)c1cn(C)cn1
- Ran FRET: -1.2

# Arranged by the number under Ran FRET (falling): 3 from the list above
smiles	Ran FRET
Cc1noc(C)c1NC(=O)N(C)C[C@@H]1OCCCC[C@H](C)Oc2ccc(NC(=O)Cc3ccccc3)cc2C(=O)N([C@H](C)CO)C[C@@H]1C	4.8
CC(C)NC(=O)N(C)C[C@H]1OCCCC[C@H](C)Oc2ccc(NC(=O)CCC(F)(F)F)cc2C(=O)N([C@@H](C)CO)C[C@@H]1C	4.5
C[C@H]1CN([C@@H](C)CO)C(=O)c2cc(NC(=O)CCC(F)(F)F)ccc2O[C@H]1CN(C)C(=O)Nc1ccccc1	1.4
